Screens as filed in PubChem BioAssay.
Ecoli growth: E. coli growth inhibition, primary screen, OD600; 330,000 compounds, 0.21% hits; Escherichia coli growth, 23 h; active compounds read low; OD600 absorbance (no concentration beside the values);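 active = OD600 absorbance below the run mean of sample wells minus 3.6 SD, in any replicate, cut at about 0.56 in these data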;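 note: stock transfer was 300 nL into about 60 µL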
Vif A3G: inhibitors of Vif binding to APOBEC3G peptide, primary screen, biochemical, TR-FRET, GST-Vif 1-94, biotin-A3G peptide, dose response retest (AID 1117319) | TR-FRET GST-Vif / biotin-A3G peptide binding; higher % means a stronger effect; test concentration not given here; strong numbers were not always called active | 260,000 compounds, 0.57% hits | inhibition, %, or IC50 in µM where a hit was titrated | Virion infectivity factor (Human immunodeficiency virus type 1 group M subtype B (isolate …;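 active = above the screen mean plus three standard deviations and confirmed in dose response; inconclusive = results disagree or hit not tested in dose response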;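 note: Vif residues 1-94 fused to GST binding biotinylated APOBEC3G peptide 110-148; 0% = full assay without inhibitor and 100% = GST in place of GST-Vif; retest series ran down from 100 µM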
UCH37 DUB inh: inhibitors of human UCH37 deubiquitinase, primary screen, biochemical, Ub-AMC cleavage, fluorescence; purified proteasome/UCH37; 330,000 compounds, 0.33% hits; inhibition, % (concentration not given with the values); Ubiquitin carboxyl-terminal hydrolase isozyme L5 (Homo sapiens), Q9Y5K5;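 active = mean of two replicates above 20%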;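 note: 0% = compound-free wells with enzyme and 100% = wells lacking proteasome; stock transfer was 100 nL into about 20 µL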
Target sequence (Q9Y5K5 whole entry, looked up): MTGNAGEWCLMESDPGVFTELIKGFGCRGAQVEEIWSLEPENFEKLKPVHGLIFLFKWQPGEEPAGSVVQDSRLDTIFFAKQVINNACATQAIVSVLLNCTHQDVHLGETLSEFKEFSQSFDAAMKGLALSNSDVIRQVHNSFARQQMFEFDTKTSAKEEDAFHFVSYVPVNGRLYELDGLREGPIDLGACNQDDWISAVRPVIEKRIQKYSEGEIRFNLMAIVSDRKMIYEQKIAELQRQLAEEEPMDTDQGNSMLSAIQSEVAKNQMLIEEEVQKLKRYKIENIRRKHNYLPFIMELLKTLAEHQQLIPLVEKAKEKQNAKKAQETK
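Reagent: Ub-AMC substrate; assay system: Proteasome-associated human UCH37 deubiquitinase; controls: no-proteasome and no-compound wells; read-out: % inhibition of Ub-AMC cleavage fluorescence; timing: 30 min preincubation with enzyme, 25 min cleavage at room temperature; signal: AMC fluorescence from Ub-AMC cleavage, excitation 355 nm, emission 460 nm; buffer or medium: Tris-HCl pH 7.4 plus ovalbumin, ATP-MgCl2, DTT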
HNF4A DNA FP: change in binding of human HNF4A to DNA, primary screen, biochemical, fluorescence polarization, FITC-DNA; AID 1224865, 2016; Hepatocyte nuclear factor 4-alpha (Homo sapiens), P41235; activity change, % at 10 µM; 360,000 compounds, 0.3% hits; 1 h; in the data active = activity change above about 30%, passing the limit was not always enough;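 note: controls were the assay level and a saturating level of protein; the project sought stronger binding though the title names inhibitors; some compounds called inactive have numbers as strong as hits; positive values seem to mean higher polarization but the record does not say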
Target sequence (P41235 whole entry, looked up): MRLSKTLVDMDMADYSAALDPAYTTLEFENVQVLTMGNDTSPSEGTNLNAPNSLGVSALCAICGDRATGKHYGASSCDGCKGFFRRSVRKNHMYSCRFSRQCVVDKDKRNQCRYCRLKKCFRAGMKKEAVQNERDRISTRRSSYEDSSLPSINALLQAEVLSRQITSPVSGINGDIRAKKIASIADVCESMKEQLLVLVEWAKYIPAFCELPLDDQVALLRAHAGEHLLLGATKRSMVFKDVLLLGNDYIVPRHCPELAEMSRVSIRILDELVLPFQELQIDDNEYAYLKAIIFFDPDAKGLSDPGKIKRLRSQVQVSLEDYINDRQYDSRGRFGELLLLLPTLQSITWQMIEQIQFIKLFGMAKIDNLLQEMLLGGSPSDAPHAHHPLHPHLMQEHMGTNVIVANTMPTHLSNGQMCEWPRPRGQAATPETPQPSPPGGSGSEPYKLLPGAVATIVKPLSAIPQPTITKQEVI
LANA-H2A inh: blockers of LANA interaction with H2A/H2B – biochemical, FP readout, HTS, primary screen; Protein LANA1 (Human herpesvirus 8 type P (isolate GK18)), Q9QR71; 320,000 compounds, 0.6% hits; AID 2629, 2010; cell-free LANA-H2A/H2B peptide, fluorescence polarization; inhibition, % (test concentration not listed); in the data active = inhibition mostly above about 10%, no sharp cut-off; inactive = mostly below about 6.7%;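 note: stock transfer was 7.5 nL into about 10 µL; 0% = median of vehicle wells and 100% = median of positive control wells; one replicate is shown; the record names a cut of 25% in any replicate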
Bfl-1 A1 inh: caspase 3/7 activation in MEF A1-2A-BIM cells, primary screen, A1 inhibitor project, cell-based, luminescence, HTS; caspase activation, % (concentration not given with the values); Caspase-Glo 3/7 luminescence, 3 h; percent of clofoctol response, vehicle zero; 330,000 compounds, 0.066% hits;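 active = over half of replicate activation scores above 10%, or exactly half above 10 with the replicate mean above 10; inconclusive = replicate mean below 10 yet half the replicates above 10; inactive = over half of replicates below 10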;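 note: wells of about 30 µL received 50 nL stock; many hits fall short of the cut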
B2AR ag: beta2AR agonists driving receptor internalization, primary screen, cell-based, FAP fluorogen, flow cytometry; response, % (no concentration beside the values); Beta-2 adrenergic receptor (Homo sapiens), P07550; Am2.2-beta2AR cells; reference of the scale not given here; 340,000 compounds, 0.43% hits;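 active = response above a set limit, near 3 SD of response in nonfluorescent compounds, cut at about 42% in these data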;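 note: stock transfer was 100 nL into about 11 µL; a reference agonist was the positive control; negative values mostly stem from fluorescent compounds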
An asterisk follows results filed as active; u = inconclusive; x = no result given; & = joins results of further samples.

SMILES	Ecoli growth	Vif A3G	UCH37 DUB inh	HNF4A DNA FP	LANA-H2A inh	Bfl-1 A1 inh	B2AR ag
COc1cccc(O)c1CN1CCC(C(=O)Nc2ccc(Oc3cccnc3)cc2)CC1	0.701	4.5%	2.4	2.0	-15.0	0.3	0.0
O=c1[nH]c2ccc(S(=O)(=O)NCCO)cc2[nH]1	0.699	u	0.4	1.1	2.8	-1.3	3.3
CC1C(=O)C(C)(C)C(=O)OC1c1ccc([N+](=O)[O-])cc1 (stereo not drawn)	0.642	x	3.7	0.4	-1.7	-0.2	-2.2
CC(C)CC(NC(=O)C1CCC(=O)N1C(=O)OCc1ccccc1)C(=O)NC(Cc1ccccc1)C(N)=O (stereo not drawn)	0.655	x	-3.4	12.6	2.6	0.4	0.5
COc1ccc(C)cc1NC(=O)C(=O)N1CCCC1	0.688	-12.8%	2.6	0.0	14.7	-5.1	-1.4
CC/C(=N\O)C(C)(C)/[N+]([O-])=C/c1ccc(Br)cc1	x	-1.9%	x	3.5	-5.2	-0.5	0.3
CC(=O)c1cccc(CN2CCC(CO)(Cc3ccccc3)CC2)c1	0.679	-2.6%	3.9	-1.1	1.2	-0.5	-1.8
O=C(Nc1cccc(Cl)c1)c1ccc(S(=O)(=O)NCC2CCCO2)cc1 (stereo not drawn)	x	x	x	-1.9	-1.8	0.1	3.9
COc1cccc(NC(=O)NNC(=O)c2ccc3c(c2)NC(=O)C(C)(C)O3)c1	0.693	x	4.5	7.2	-0.4	0.2	-2.9
Cc1ccccc1N1CCN(C(=O)NCc2cccc(Cl)c2)CC1	0.663	x	0.8	-0.1	3.2	1.9	1.6
O=C(CSc1ccc(Br)cc1)Nc1cccc(S(=O)(=O)N2CCOCC2)c1	0.65	2.1%	1.5	7.6	x	x	-5.8
CN(C)/C(Cn1cncn1)=C1/N=C(c2ccccc2)OC1=O	0.648	1.9%	16.0	-0.5	6.9	0.8	-5.6
Cc1cccc(C)c1OCC(O)CN1CCN(c2ccccc2)CC1 (stereo not drawn)	0.594	-0.9%	1.9	1.6	-3.4	0.7	-1.2
Cc1cc(C(=O)CN2C(=O)c3ccccc3C2=O)c(C)n1C1CC1	0.715	20.7%	2.6	-0.1	1.6	0.3	2.0
Cc1cccc(N(CC(=O)NC(C)C)C(=O)CCC(=O)Nc2ccccn2)c1	0.637	x	1.6	-1.3	-7.1	0.5	-6.2
COc1ccc(C)cc1NC(=O)Cn1c(=O)oc2ccccc21	x	-1.4%	x	3.2	1.7	0.0	-1.1
COc1ccc(-c2cn(CCC(=O)NCc3ccc(C)cc3)c(-c3ccncc3)n2)cc1	0.695	x	-1.6	-0.9	2.0	-0.4	-2.8
CCC(=O)N1c2ccc(S(=O)(=O)N3CCOCC3)cc2CC1C (stereo not drawn)	0.667	1.6%	3.3	-0.3	3.9	-0.8	-3.6
COc1ccc(CNC(=O)C2CCCN2CCc2ccccc2)cc1OC (stereo not drawn)	0.642	8.8%	-0.4	0.1	-0.1	-0.1	-5.9
CC(=O)c1cccc(NS(=O)(=O)c2ccc(N/C=C/C(=O)c3ccc(F)cc3)cc2)c1	0.69	x	-12.1	-0.2	0.8	0.0	-4.2
Cc1nc2ncnn2c(Nc2ccc3c(c2)OCO3)c1Cc1ccccc1	0.725	u	5.9	-3.7	3.5	0.0	-0.3
Cc1cc(N2CCOCC2)ccc1/C=C1\NC(=O)N(CC(=O)Nc2ccccc2C)C1=O	0.72	u	2.1	5.2	-2.7	0.3	-4.4
COc1ccccc1CCC(=O)N1CCN(S(=O)(=O)c2cc(C(F)(F)F)ccc2Cl)CC1	0.695	2.2%	3.1	0.7	3.9	0.1	-7.7
CCOC(=O)N1CCC(NC(=O)c2cc3c(-c4ccc(Cl)cc4)nn(C)c3s2)CC1	0.739	u	-43.0	-0.1	x	x	4.3
O=C(NCc1ccc(N2CCCC2=O)cc1)c1cn(CCc2ccccc2)nn1	0.749	3.6%	3.5	-2.8	-2.2	0.5	-1.0
Following part:
SMILES	Ecoli growth	Vif A3G	UCH37 DUB inh	HNF4A DNA FP	LANA-H2A inh	Bfl-1 A1 inh	B2AR ag
CCOc1ccc(-c2nc(-c3ccccc3)no2)cc1OCC	0.738	19.0%	3.6	-0.5	-1.1	-1.6	2.1
COc1ccc(-c2noc(CCC(=O)NCC3CCCO3)n2)cc1OC (stereo not drawn)	0.725	1.0%	2.9	1.4	-0.1	-0.1	-4.0
CCCCCCCC1(C)NC(=O)NC1=O (stereo not drawn)	0.65	-1.0%	0.2	-1.9	1.6	1.0	-5.2
Cc1ccc(CNC(=O)c2ccc(NS(=O)(=O)c3c(C)noc3C)cc2)cc1	0.736	-0.8%	4.9	-0.6	8.2	-0.2	0.4
CCN(CC)C(=O)Cn1c(=O)n(CCCC(=O)NCc2ccccc2)c(=O)c2sccc21	x	-6.9%	x	1.1	-3.8	0.5	-2.3
O=C(NCCN1CCN(c2ccccc2F)CC1)c1cccn2c(=O)c3ccccc3nc12	0.723	-6.5%	-29.8	-1.0	3.5	-0.2	11.9
COc1ccc(/C=N/N2CCOCC2)cc1COc1ccc(Cl)cc1	x	22.0%	x	4.9	5.2	-0.1	-4.0
CC(c1cccs1)N(C(=O)Nc1ccccc1)C1CCCCC1 (stereo not drawn)	0.666	4.6%	4.8	1.6	-4.2	0.3	12.9
O=C(Nc1ccc(NC(=S)NC(=O)c2cccs2)cc1)c1ccco1	0.703	1.9%	4.1	7.6	0.9	-0.9	3.2
O=C(CCl)c1ccc2c(c1)CCN2C(=O)C1CCCCC1	0.669	u	6.4	5.7	5.3	0.5	22.1
O=C(CN1CCCCC1)Nc1ccc(S(=O)(=O)N2CCOCC2)cc1	0.644	1.8%	0.3	1.0	1.2	-0.5	7.0
CCC(=O)Nc1ccc(S(=O)(=O)NCCc2ccccc2)cc1	0.647	19.6%	0.7	2.3	-2.3	0.9	7.4
Cn1cc([N+](=O)[O-])c(C(=O)Nc2ccc(-c3nc4ccccc4o3)cc2)n1	x	x	x	1.3	-0.2	-1.9	14.4
CCNc1nc(NC(C)C)nc(N(n2cnnc2)S(=O)(=O)c2ccc(C)cc2)n1	0.737	11.4%	5.6	-0.8	5.5	-0.9	-13.7
O=C1c2ccccc2NC(c2ccco2)N1/N=C/c1ccco1 (stereo not drawn)	x	4.2%	x	-0.6	3.6	-0.9	-1.0
CC(=O)Nc1ccc2nc(SCC(=O)N3CCOCC3)sc2c1	0.677	32.0%	-1.5	0.2	-6.2	0.9	17.2
O=C(c1ccccc1F)N1CCN(c2ccccc2F)CC1	0.652	16.6%	-0.8	4.3	-0.1	-0.7	8.0
Cc1cc(C)cc(NC(=S)N2CCC(NC(=O)c3ccccc3C)CC2)c1	0.656	-7.5%	-1.5	3.5	1.9	0.2	8.4
Cc1ccccc1-n1c(O)c(/C=N/N2CCCCC2c2cccnc2)c(=O)[nH]c1=O (stereo not drawn)	0.711	8.6%	0.9	12.6	-0.5	0.5	7.9
CSCC[C@H](NC(=O)OC(C)(C)C)C(=O)N/N=C/c1ccc2nccnc2c1	x	u	x	2.8	4.5	-0.2	0.1
Cc1cc(C)cc(OCCCn2ccnc2)c1	0.67	1.8%	1.3	0.2	5.6	-1.0	0.2
COc1ccc(-c2cc(C(=O)Nc3cc(C)on3)no2)cc1OC	0.68	-6.6%	-70.1	1.8	5.5	0.1	3.1
CCN(CC)CCCNC(=O)/C(=C\c1cccn1C)NC(=O)c1cccs1	0.692	x	15.4	-2.5	1.6	0.5	-0.1
O=C(NCc1cccs1)C1CCC(=O)N(Cc2cccc(C(F)(F)F)c2)C1 (stereo not drawn)	0.663	5.5%	2.5	4.3	-0.5	0.2	-8.0
CCOc1cc(Br)c(CC(=O)NC2CCCCCC2)cc1OCC	0.675	x	2.7	-2.5	0.0	-0.2	-9.2

By substructure: the entries above with bromine
SMILES	Ecoli growth	Vif A3G	UCH37 DUB inh	HNF4A DNA FP	LANA-H2A inh	Bfl-1 A1 inh	B2AR ag
CC/C(=N\O)C(C)(C)/[N+]([O-])=C/c1ccc(Br)cc1	x	-1.9%	x	3.5	-5.2	-0.5	0.3
O=C(CSc1ccc(Br)cc1)Nc1cccc(S(=O)(=O)N2CCOCC2)c1	0.65	2.1%	1.5	7.6	x	x	-5.8
CCOc1cc(Br)c(CC(=O)NC2CCCCCC2)cc1OCC	0.675	x	2.7	-2.5	0.0	-0.2	-9.2

Continuation:
SMILES	Ecoli growth	Vif A3G	UCH37 DUB inh	HNF4A DNA FP	LANA-H2A inh	Bfl-1 A1 inh	B2AR ag
CC1SC(C)C(=O)N(CC(=O)Nc2ccc([N+](=O)[O-])cc2)C1=O (stereo not drawn)	0.678	6.8%	3.6	-0.3	-0.5	1.2	3.1
COc1ccccc1NC(=O)c1cc2c(CO)cnc(C)c2oc1=Nc1cc(OC)c(OC)c(OC)c1	0.667	1.3%	4.5	-0.2	-1.1	-0.4	32.1
Nc1nc2c(s1)C(=O)CC(c1ccccc1)C2 (stereo not drawn)	0.681	19.3%	2.3	-0.1	3.6	-0.8	3.6
N#Cc1c(NC(=O)CSc2nnc(-c3ccncc3)n2CC2CCCO2)sc2c1CCCC2 (stereo not drawn)	0.693	-5.7%	2.3	1.5	4.8	-0.7	-9.7
Cc1ccc([N+](=O)[O-])c(C(=O)N/N=C/c2cccnc2)c1	x	-5.9%	x	-2.6	0.5	-0.8	-2.1
CN(CCOC(=O)c1ccc2c(c1)OCCO2)Cc1ccccc1	0.706	-2.6%	1.3	1.3	0.0	-0.7	3.1
O=C(NCCCNC(=O)c1ccccc1Cl)c1cnccn1	0.697	x	0.2	2.7	3.0	-0.5	2.3
Cc1cc(NC(=O)CN2CCN(c3ccccn3)CC2)ccc1Br	0.625	-14.6%	2.0	-3.0	2.8	-1.7	-20.6
Cn1c(=O)c2c(nc(CN3CCN(C(c4ccccc4)c4ccccc4)CC3)n2CCCO)n(C)c1=O	x	-10.7%	x	1.8	0.5	-0.1	0.3
CS(=O)(=O)N1CC2CCCN2c2cc(C(F)(F)F)ccc21 (stereo not drawn)	0.652	6.3%	2.2	3.9	-2.3	0.4	-21.2
Cc1ccc(S(=O)(=O)N2[C@@H](c3ccccc3F)C(C(=O)O)=CC[C@H]2c2cccs2)cc1	x	x	1.1	2.8	-1.1	0.9	1.4
Cn1cnnc1Sc1cc(N2CCN(S(=O)(=O)c3ccc(Cl)c(Cl)c3)CC2)ccc1[N+](=O)[O-]	0.757	7.3%&4.7%	1.3	2.4	7.4	0.3	2.4
COc1cc(OC)c2c(c1)OC(c1ccc(OC)c(OC)c1)C(O)C2=O (stereo not drawn)	0.77	5.2%	-1.6	3.4	-0.1	0.0	17.8
CCN1CC(CN(C)Cc2nc(-c3ccco3)oc2C)CC1=O (stereo not drawn)	0.669	5.7%	0.3	3.7	3.5	-0.2	-3.3
COc1cccc(NC(=O)C2C(c3ccccc3)C2(Cl)Cl)c1 (stereo not drawn)	0.645	8.4%	5.9	0.5	-1.3	0.3	-3.9
CC1(C)OC2CC3C4CCC5=CC(=O)CCC5(C)C4(F)C(O)CC3(C)C2(C(=O)CO)O1 (stereo not drawn)	0.717	0.0%	4.4	-3.5	x	x	-1.5
